Screens: PubChem, National Center for Advancing Translational Sciences (NCATS)
TRPML1 inh – human mucolipin-1 channel inhibition. Q9GZU1. TRPML1-inducible cells, Ca2+ dye fluorescence, FDSS; active compounds read low; inhibition of EC80 agonist-evoked calcium signal. activity change, negative = inhibition, % (no concentration beside the values). 390,000 compounds, 0.02% hits. AID 624415; in the data active means activity change below about -50%; inconclusive means about -30% to -50%; inactive means above about -30%;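 also: stimulus is agonist 54-4 at its EC80 concentration; % is scaled to controls: 0 for no effect and ±100 for the full control effect; compound concentration not given in the record; the text of the record puts the active cut at -80%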
Target sequence (Q9GZU1 whole entry, looked up): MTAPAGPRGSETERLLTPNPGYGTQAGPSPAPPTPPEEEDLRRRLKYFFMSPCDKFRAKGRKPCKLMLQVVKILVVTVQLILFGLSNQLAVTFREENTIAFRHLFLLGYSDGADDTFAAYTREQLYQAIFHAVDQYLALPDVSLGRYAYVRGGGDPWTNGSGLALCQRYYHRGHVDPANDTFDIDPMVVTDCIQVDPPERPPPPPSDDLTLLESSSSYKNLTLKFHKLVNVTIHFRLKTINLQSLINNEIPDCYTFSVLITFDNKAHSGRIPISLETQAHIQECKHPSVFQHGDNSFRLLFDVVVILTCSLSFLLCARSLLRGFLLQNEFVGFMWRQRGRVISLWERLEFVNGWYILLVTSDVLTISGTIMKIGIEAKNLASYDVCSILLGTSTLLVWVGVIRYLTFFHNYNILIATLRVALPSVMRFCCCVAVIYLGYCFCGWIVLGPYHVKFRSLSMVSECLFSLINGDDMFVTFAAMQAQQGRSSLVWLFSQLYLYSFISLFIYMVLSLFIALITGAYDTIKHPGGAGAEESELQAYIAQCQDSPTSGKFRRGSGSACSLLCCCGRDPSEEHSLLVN
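Tet-induced TRPML1-DL cells loaded with Ca8 no-wash calcium dye were read kinetically on FDSS. Compound addition was followed by EC80 agonist 54-4 (4 uM final); inhibition was read over 110 s.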
D2 potentiator – human D2 receptor positive allosteric modulation | DiscoveRx D2 beta-arrestin cells, luminescence, 90 min; 100% = 57 uM dopamine signal | P14416 | 360,000 compounds, 0.23% hits | potentiation, % (no concentration beside the values); active = potentiation of 50% or more; inconclusive = 30% to 50%; inactive = 30% or less;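 also: compound concentration not given in the record; tested on top of an EC20 dose of dopamine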
Target sequence (P14416 whole entry, looked up): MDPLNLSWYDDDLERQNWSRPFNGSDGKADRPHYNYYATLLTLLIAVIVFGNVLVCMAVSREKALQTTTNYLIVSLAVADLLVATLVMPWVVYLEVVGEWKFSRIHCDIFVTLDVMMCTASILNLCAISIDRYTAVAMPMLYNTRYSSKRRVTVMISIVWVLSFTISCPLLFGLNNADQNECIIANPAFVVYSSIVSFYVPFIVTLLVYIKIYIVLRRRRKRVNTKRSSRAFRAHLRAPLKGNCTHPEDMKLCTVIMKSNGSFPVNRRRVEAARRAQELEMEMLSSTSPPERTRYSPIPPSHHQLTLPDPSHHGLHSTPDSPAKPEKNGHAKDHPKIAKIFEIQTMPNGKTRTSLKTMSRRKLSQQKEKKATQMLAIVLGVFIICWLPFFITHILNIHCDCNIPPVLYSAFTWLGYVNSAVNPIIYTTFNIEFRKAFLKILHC
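D2 cells co-treated with compound plus 50 nM dopamine (EC20) for 90 min at 37 deg C to detect potentiation. Beta-arrestin recruitment was read as enzyme-fragment luminescence after 1 h at ambient temperature. Full response was set by 57 uM dopamine.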
CtBP-E1A inh – inhibitors of CtBP/E1A interaction; 340,000 compounds, 0.49% hits; activity change, % (no concentration beside the values); AID 651724; AlphaScreen GST-E1A/His-CtBP binding, 1536-well; active compounds read low; control for the full effect not named in the record; in the data active means activity change below about -65%; inconclusive means about -30% to -65%; inactive means above about -30%; also: % is scaled to controls: 0 for no effect and ±100 for the full control effect
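In 5 uL wells, 23 nL compound meets equimolar GST-E1A and His-CtBP (5X stock 125 nM each) for 2 h, 37 °C. Beads (5X, 50 ug/mL) then 1 h, 37 °C, dark.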
TRPML1 agonist – human mucolipin-1 channel agonism; Q9GZU1; TRPML1-expressing cells, Ca2+ dye fluorescence, FDSS; host cell line not named in the record; reference of the full effect not given here; activation, % (test concentration not listed); 410,000 compounds, 0.12% hits; in the data active = activation above about 50%; inconclusive = about 30% to 50%; inactive = below about 30%; also: 0% is about no effect; the text of the record puts the active cut at 80%
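Kinetic FDSS Ca2+ read in Tet-induced TRPML1-DL cells (ABD Ca8 dye plus quencher, 45-90 min RT loading): baseline, then compound, then 110 s agonist window; EC80 agonist 54-4 at 4uM final added afterwards for a 110 s antagonist window.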
TRPV1 potentiator – enhances activation of the human vanilloid receptor TRPV1; Q8NER1; TRPV1-expressing cells, Fluo-8 calcium influx, capsaicin EC20 potentiation; host cell line not named in the record; control for the full effect not named in the record; potentiation, % at 8.33 µM; 320,000 compounds, 0.02% hits; AID 540277; active means potentiation above 80%; inconclusive means 30% to 80%; inactive means below 30%; also: 0% is about no effect
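TRPV1-expressing cells were cultured overnight at 35.5C and loaded with Fluo-8 calcium dye for 40 to 90 min at room temperature. After a 10 s baseline, compound was added and calcium influx was read kinetically for 3 min (ex 480/em 520 nm).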
Six1-Eya2 blk – inhibitors of human Six1/Eya2 interaction; Q15475+O00167; AlphaScreen GST-Six1/His-Eya2 binding, biochemical; active compounds read low; control for the full effect not named in the record; activity change, % (no concentration beside the values); 360,000 compounds, 0.56% hits; AID 651725; in the data active = activity change below about -65%; inconclusive = about -30% to -65%; inactive = above about -30%; also: % is scaled to controls: 0 for no effect and ±100 for the full control effect
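Homogeneous AlphaScreen proximity assay pairing GST-Six1 with His-tagged Eya2 (added as 5X mix: 250 nM and 500 nM) in 50 mM Tris pH 8.0, 300 mM NaCl, 1 mM TCEP. Glutathione donor and nickel acceptor beads; 1 h, 37 °C, dark.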
* hit, by the source's call; ? = inconclusive; · = no result given; & = joins results of further samples.

SMILES	TRPML1 inh	D2 potentiator	CtBP-E1A inh	TRPML1 agonist	TRPV1 potentiator	Six1-Eya2 blk
Cc1cc(C)c(C)c(S(=O)(=O)N2CCC(C(=O)N3CC(C)CC(C)C3)CC2)c1C (stereo not given)	-7	-9	-22	1.6	-12	8
COc1ccc(C)cc1NC(=O)CSc1nc(SC)ns1	16	-20	-5	6.6	-17	-9
Cc1ccc(-c2nc(NC(=O)c3nn(C)cc3[N+](=O)[O-])sc2C)cc1C	59	1	5	0.8	-11	7
CCCNC(=O)C1(CC2CC(c3ccccc3)=NO2)CCN(C(=O)c2cc(OCC)c(OCC)c(OCC)c2)CC1 (stereo not given)	11	-1	3	4.1	·	-3
C=C1SC(Nc2c(C)cc(C)cc2C)=NC12CCCCC2	-13	-12	-10	0.0	17	-9
O=C(CSc1nnc2n1CCCN2)c1ccc(Cl)cc1	-5	-18	8	-1.5	-1	5
CCCc1cc(=O)[nH]c(SCC(=O)N(C)CC(=O)Nc2ccccc2CC)n1	14	11	2	1.7	8	3
COc1cccc(-c2nc(N3CCN(Cc4ccccc4)CC3)c3ccccc3n2)c1O	3	0	6	0.1	6&-13	0
O=C(NCc1ccc(Br)cc1)OC1CC2CC1[C@H]1CCCCN1C2=O (stereo not given in full)	·	·	1	-0.5	·	-5
COc1ccc(NC(=O)c2ccc(-n3cncn3)c([N+](=O)[O-])c2)cc1OC	20	13	-25	0.3	-7	-10
O=C(Cc1ccc(NC(=O)C2CCN(C(=O)c3ccccc3)CC2)cc1)Nc1ccc(C(=O)N2CCOCC2)cc1	-7	0	3	3.1	·	1
COc1ccc(/C=N/NC(=S)NCC2CCCO2)cc1 (stereo not given)	11	0	8	-0.6	-8	4
Cc1cc(NC(=O)c2ccccc2C)no1	-7	-4	-3	0.4	-1	10
CC1(C(=O)NNC(=O)c2ccc(=O)oc2)CC1Br (stereo not given)	4	-5	-14	-0.2	-5	-17
Nc1cnc(Nc2ccc(Br)cc2)nc1N	-7	-3	·	-0.6	24	-10
O=C(Oc1cccc(-n2cnnn2)c1)c1ccco1	-7	-9	5	1.0	-19	13
CN(C)CCOc1ccc(-c2c(-c3ccccc3)sc3ccccc23)cc1	5	-31	-18	0.7	·	-30
Cc1ccc(C(=O)/C=C/Nc2ccccc2C(N)=O)cc1	-5	-23	-1	0.3	4	0
COc1ccc(NC(=O)Cn2ncn3c(cc4ccccc43)c2=O)c(OC)c1OC	5	-13	·	0.7	2	-1
COc1ccc(CN(CC(=O)NCC2CCCO2)C(=O)CNS(=O)(=O)c2ccccc2)cc1 (stereo not given)	9	-5	0	-0.1	-2	-1
O=C(/C=C/c1ccc(Cl)cc1Cl)NCCSCc1ccccc1	53	-8	4	4.9	5	4
O=C1CCC/C=C\C[C@@H](CC(=O)N(CCO)Cc2ccccc2)C(=O)N2CCC[C@H]2CO1	-5	-6	6	-0.7	·	-7
CCCc1nc2ccc(NC(=O)c3cccs3)cc2c(=O)n1Cc1ccccc1Cl	-20	-17	-19	1.9	11	-11
CCOC(=O)CNC(=O)CSc1nc2cccnc2n1C	-5	8	1	1.8	-25	-1
COc1cc2cc(C)c(SCC(=O)N3CCN(C(=O)c4ccco4)CC3)nc2cc1OC	·	7	-4	·	23	-11

Copied from the list.
CCCc1nc2ccc(NC(=O)c3cccs3)cc2c(=O)n1Cc1ccccc1Cl in TRPML1 inh has -20
CC1(C(=O)NNC(=O)c2ccc(=O)oc2)CC1Br (stereo not given) in TRPV1 potentiator has -5
Nc1cnc(Nc2ccc(Br)cc2)nc1N in D2 potentiator has -3
C=C1SC(Nc2c(C)cc(C)cc2C)=NC12CCCCC2 in D2 potentiator has -12

The main list resumes, starting 2 compounds before the break.
SMILES	TRPML1 inh	D2 potentiator	CtBP-E1A inh	TRPML1 agonist	TRPV1 potentiator	Six1-Eya2 blk
CCOC(=O)CNC(=O)CSc1nc2cccnc2n1C	-5	8	1	1.8	-25	-1
COc1cc2cc(C)c(SCC(=O)N3CCN(C(=O)c4ccco4)CC3)nc2cc1OC	·	7	-4	·	23	-11
COc1cccc(CN2CCC(C(=O)Nc3ccc(-c4cccc(C)c4)cc3)CC2)c1O	1	1	-17	-0.5	2	-19
Cc1cnc(CNC(=O)CC2C(=O)NCCN2Cc2ccccc2F)cn1 (stereo not given)	7	-12	-5	0.3	10	0
COc1ccc(C)cc1NC(=S)NNC(=O)c1ccccc1Cl	43	-28	-6	-0.6	10	-5
O=C(COC(=O)c1ccc2c(c1)S(=O)(=O)N=C1CCCCCN12)NCc1cccs1	-9	-7	2	0.8	·	24
Cn1c(CNc2ccc(O)cc2)nc2ccccc21	·	5	-4	·	-2	-13
Cc1ccc(C)c(N(CC(=O)N/N=C/c2ccc(-c3ccc([N+](=O)[O-])cc3)o2)S(=O)(=O)c2ccccc2)c1	9	11	-16	0.3	-6	-3
Cc1ccc(Oc2ncccc2NC(=O)CCCC(=O)O)c2c1CCC2	6	-4	7	0.1	-1	5
Cc1ccc(-c2csc(N3CCC(C(N)=O)(N4CCCCC4)CC3)n2)cc1	-3	-3	2	-0.6	2	-2
CC1CCCCC1NC(=O)c1cc2c(s1)CS(=O)(=O)C2 (stereo not given)	22	2	-5	1.0	6	4
O=C(Nc1cccc(S(=O)(=O)N2CCCCC2)c1)C1=NN(c2ccccc2)C(=O)CC1	24	-14	·	-0.7	14	-7
CCC1C(O)=C(c2ccccn2)C(=N)N1c1ccccc1 (stereo not given)	13	11	-11	0.6	1	-4
CC(=O)Nc1ccc(C(=O)CN2CCN(c3ccccc3)CC2)cc1	74	-7	0	0.7	11	8
COc1cc(C(=S)N2CCC(Cc3ccccc3)CC2)ccc1OCC(N)=O	-10	-4	5	1.3	6	-16
O=C(NCc1ccc(F)cc1)c1cc2c(s1)CS(=O)(=O)C2	-17	-5	·	2.5	-22	4
O=[N+]([O-])c1cccc(NC(=S)NCCc2ccccc2)c1	-9	-32	-1	-0.2	0	-2
CCCc1nc2ccc(C)cn2c1Cc1ccc(OC)cc1C	·	-12	-5	-0.3	·	9
Cc1c(OCc2nn[nH]n2)ccc2c(-c3ccccc3)cc(=O)oc12	0	-2	-4	-1.0	-8	-13
O=C(CCCN1C(=O)/C(=C/c2ccco2)SC1=S)Nc1cccc(C(=O)O)c1	18	1	-6	0.3	-3	-27
O=C(Nc1ccc(Br)cc1)c1cnc[nH]1	·	2	2	·	-25	-7
COc1cc(/C=N/n2c(C)nnc2C)cc(OC)c1OC	-2	-9	1	-0.8	16	-6
COc1ccc2cc(C(=O)C3CCCN(C(=O)c4csnn4)C3)ccc2c1 (stereo not given)	-10	3	2	-0.6	0	3
COCCNC(=O)CN(C(=O)CCC(=O)Nc1ccccn1)c1ccccc1F	-1	-19	9	0.2	5	3
Cc1nc(CC(=O)N2CCN(S(=O)(=O)c3ccccc3C#N)CC2)cs1	-7	-21	6	0.5	?	-1
Cc1ccc(Cn2cc(CN3CC(N4CCN(Cc5cccc(C)c5)CC4)CS3(=O)=O)nn2)cc1 (stereo not given)	·	·	-7	-0.8	·	-1
CC(OC(=O)c1cc(S(=O)(=O)N2CCOCC2)ccc1Br)C(=O)N1CCOCC1 (stereo not given)	-5	7	0	0.6	-2	3
Other structures.
SMILES	TRPML1 inh	D2 potentiator	CtBP-E1A inh	TRPML1 agonist	TRPV1 potentiator	Six1-Eya2 blk
CC(C)(C)OC(=O)N1CCC(c2c(C(=O)NCC3CCN(C4CCCC4)C3)cnn2-c2cccc(Cl)c2)CC1 (stereo not given)	-5	-31	-3	0.2	-3	-4
COC(=O)[C@]1(C)N[C@H](c2ccc(-c3ccc(OC)cc3)cc2)[C@@H]2C(=O)N(C)C(=O)[C@@H]21	1	-11	-22	0.4	·	9
O=C(CC(C(=O)O)c1ccc(Cl)cc1Cl)c1ccc(Cl)cc1 (stereo not given)	3	4	7	2.4	9	15
CCN1CCN(C(=O)C(NS(=O)(=O)c2ccc3nc(C)sc3c2)C(C)C)CC1 (stereo not given)	4	-4	6	0.0	·	8
S=C(Nc1ccc2nccnc2c1)N1CCCC1	11	-1	8	-0.2	1	6
COc1cc(/C(C)=N/NC(=O)c2nnn(-c3nonc3N)c2-c2cccs2)ccc1O	6	-11	·	0.9	14	3
CNC(=O)c1ccsc1NC(=O)c1coc2ccccc2c1=O	3	1	-1	-1.0	8	2
COc1ccc(-n2nnnc2SCC(=O)Nc2ccc3c(c2)OCCO3)c(OC)c1	7	-19	-22	0.6	-7	-6
COC(=O)[C@@H]1C[C@@]2(O)[C@@H](O)[C@@H](O)[C@@H](O)C[C@H]2N1C/C=C/c1ccccc1	-2	-15	4	-0.6	-50	5
Cc1ccc(S(=O)(=O)N(C)C)cc1NC(=O)COC(=O)Cc1ccc(Br)cc1	-14	-12	6	0.1	1	3
CCSc1ccccc1C(=O)N1CCN(Cc2ccc3c(c2)OCO3)CC1	2	-13	-8	0.7	-10	-4
COc1ccc(/C(O)=C(\C#N)c2nc3ccccc3n2C)cc1OC	7	0	-12	0.8	-5	-10
Cn1cc(C(=O)c2cccc(Cl)c2Cl)cc1C(=O)O	-9	-3	36	-0.7	·	23
O=C(N/N=C/c1ccc([N+](=O)[O-])cc1)c1cccs1	-5	5	·	0.6	-7	-5
NC(=O)CC(NC(=O)Cc1ccc(Br)cc1)c1ccc(N2CCN(c3ccc(F)cc3)CC2)c([N+](=O)[O-])c1 (stereo not given)	23	-1	0	0.7	5	-3
CC(=O)c1c(C)[nH]c(C(=O)NC(C)c2ccccc2)c1C (stereo not given)	-1	-6	·	1.4	-8	-2
COc1ccccc1NC(=O)C(C)OC(=O)C1CCN(S(=O)(=O)c2ccc(C)c(C)c2)CC1 (stereo not given)	-5	-9	5	0.5	-8	-5
COc1ccccc1-n1c(SCC(=O)Nc2ccc(Cl)cc2)nc(O)c(Cc2ccccc2)c1=O	4	-16	0	0.1	·	12
Cc1oc(-c2ccccc2Cl)nc1CS(=O)(=O)CC(=O)NC1CCCC1	5	-6	3	0.0	-4	8
COc1ccc(N/C=C(/C(C)=O)c2ccccc2)cc1	-6	8	-3	-1.2	21	-7
O=S(=O)(Cc1ccccc1)N1CCn2c(nc3ccccc32)C1	0	-6	12	0.3	-6	-1
COc1cc(NC(=O)c2ccc(N3CC4CC(C3)c3cccc(=O)n3C4)c(NC(=O)c3ccncc3)c2)cc(OC)c1OC (stereo not given)	-10	2	2	-0.4	-2	1
Cc1cc(C)n2nc(SCC(=O)Nc3ccc(F)c(F)c3F)nc2n1	-2	7	·	-0.5	5	-9
Cc1ccc(C(=O)OCC(=O)Nc2ccc3c(c2)OCO3)o1	3	-6	2	-0.8	-4	-4
Clc1ccc2c(c1)C(C1=NCCN1)c1ccccc1CS2 (stereo not given)	27	-13	5	-0.4	-4	0
CC1=C(C(=O)N(C(C)C)C(C)C)CC(CC(=O)NC(c2ccccc2)c2ccccc2)C(=O)N1Cc1ccc(F)cc1 (stereo not given)	·	-4	2	-0.7	·	-3

2 entries drawn at random from the list so far, as already listed:
SMILES	TRPML1 inh	D2 potentiator	CtBP-E1A inh	TRPML1 agonist	TRPV1 potentiator	Six1-Eya2 blk
COC(=O)[C@]1(C)N[C@H](c2ccc(-c3ccc(OC)cc3)cc2)[C@@H]2C(=O)N(C)C(=O)[C@@H]21	1	-11	-22	0.4	·	9
O=C(COC(=O)c1ccc2c(c1)S(=O)(=O)N=C1CCCCCN12)NCc1cccs1	-9	-7	2	0.8	·	24
